NPYLR7 agonist – activates Aedes aegypti NPYLR7 receptor; HEK293T NPYLR7/Galpha15, GCaMP6s calcium fluorescence; 270,000 compounds, 0.15% hits; AID 1259423; activation, % at 10 µM; in the data active = activation above about 40%;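 note: 0% = vehicle and 100% = reference agonist at the receptor; some compounds past the cut are filed as inactive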
NPYLR7 agonist max-min – second read-out of NPYLR7 agonist, no call of its own (marks repeat the call); activation, %; measured here: Max-Min RFU normalised activation; some inactives read as strong as hits;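 span of the calcium signal over five minutes; 0% = vehicle and 100% = native peptide agonist; compound fluorescence can raise it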
* hit, by the source's call; i = inactive; & = joins results of further samples. Some of the compounds tested (hit frequency here may not be typical).

The first two records (preview)
SMILES | NPYLR7 agonist | NPYLR7 agonist max-min
CCC(C)NS(=O)(=O)c1cc(C)ccc1OC (stereo not drawn) | 7 | 8
Cc1c(C)n2c3c(=O)n(CC(=O)OCc4ccccc4)c(=O)n(C)c3nc2n1C1CCCC1 | 6 | 3

The list itself, repeating the preview:
SMILES | NPYLR7 agonist | NPYLR7 agonist max-min
CCC(C)NS(=O)(=O)c1cc(C)ccc1OC (stereo not drawn) | 7 | 8
Cc1c(C)n2c3c(=O)n(CC(=O)OCc4ccccc4)c(=O)n(C)c3nc2n1C1CCCC1 | 6 | 3
COc1cc(NS(=O)(=O)c2ccc(Cl)cc2)c2ncccc2c1 | 4 | -1
Cc1cc(-n2cnnc2)ncc1-c1ccc(O)cc1 | 1 | 5
CCCCOc1ccc(NC(=O)N2CCC(c3nc4ccccc4[nH]3)CC2)cc1 | 1 | -2
Cc1ccc(C(O)(CCNC(=O)Nc2ccc(C#N)cc2)C(F)(F)F)o1 (stereo not drawn) | 2 | 1
CCN(CC)c1ncccc1CNCc1cccn1-c1cccnc1 | 1 | -4
Cc1cc(NC(=O)C2CCN(C(=O)C3(c4cccs4)CCCC3)CC2)no1 | 0 | -3
Cc1ccc(C(=O)Oc2coc(CSc3ncccn3)cc2=O)cc1[N+](=O)[O-] | -9 | -6
COC(=O)c1cccc(CN2C(=O)C(Cc3ccccc3)ON=C2c2ncccc2C)c1 (stereo not drawn) | -1 | -4
CC(NC(=S)N(C1CC1)C1CCS(=O)(=O)C1)c1ccccc1 (stereo not drawn) | -8 | -9
COc1nn(C)cc1C(=O)Nc1ccc(C(N)=O)cc1 | 4 | 1
CCOC1CC(OC(=O)c2csc(C)n2)C12CCCC2 (stereo not drawn) | 0 | -1
CCc1ccc(NC(=O)NCCN2CCN(c3nc(Cc4cccc(OC)c4)ns3)CC2)cc1 | -3 | 7
COc1cc(-c2nc3cc(C)ccn3c2NC(C)(C)CC(C)(C)C)ccc1OS(=O)(=O)c1c(C)cc(C)cc1C | 5&-9 | 4&-1
COc1ccc(S(=O)(=O)NCC2CCCN(Cc3ccccc3C)C2)cc1 (stereo not drawn) | -6 | -7
CCN1CCc2cc(OC)c(OC)cc2C1C(C)NC(=O)c1cccc(Cl)c1 (stereo not drawn) | -1 | 10
Nc1cc(=O)nc(SCC(=O)N2CCN(c3ccccc3)CC2)n1-c1ccc(F)cc1 | 8 | 5
Cc1noc(-c2ccco2)c1C(=O)NCc1cccc(Cl)c1 | 3 | -5
COC(=O)CCc1c(C)nc2c(c(-c3ccc(F)cc3)nn2C2CCS(=O)(=O)C2)c1C (stereo not drawn) | 16 | 7

A second format for part of the listing above.
> Nc1cc(=O)nc(SCC(=O)N2CCN(c3ccccc3)CC2)n1-c1ccc(F)cc1
  NPYLR7 agonist: 8
  NPYLR7 agonist max-min: 5

> Cc1c(C)n2c3c(=O)n(CC(=O)OCc4ccccc4)c(=O)n(C)c3nc2n1C1CCCC1
  NPYLR7 agonist: 6
  NPYLR7 agonist max-min: 3

(next part)
SMILES | NPYLR7 agonist | NPYLR7 agonist max-min
CO[C@H]1C=CO[C@@]2(C)Oc3c(C)c(O)c4c(O)c(c(C=NN5CCN(C6CCCC6)CC5)c(O)c4c3C2=O)NC(=O)/C(C)=C\C=C/[C@H](C)[C@H](O)[C@@H](C)[C@@H](O)[C@@H](C)[C@H](OC(C)=O)[C@@H]1C | -1 | -8
C=CCn1c(SCC(=O)Nc2ccc(C(=O)OC)cc2)nc2sc3c(c2c1=O)CCCC3 | -2 | -1
O=C(CN1CCCCCC1=O)NNC(=O)CN1C(=O)CNC1=O | -2 | -10
Cc1cccc(COC2CCCN(C(=O)c3ccc(Cl)cc3)C2)c1 (stereo not drawn) | 11 | 17
CCc1ccc2oc3c(c(=O)c2c1)C(c1ccccn1)N(c1cc(C)on1)C3=O (stereo not drawn) | 5 | 3
COc1ccc(-c2cc(-c3ccccc3)cc(-c3ccc(OC)cc3)[o+]2)cc1 | 25 | 10
CC(C)c1nc(CNC(=O)c2cc(COc3c(F)cccc3F)on2)cs1 | 2 | -3
CCC(CC)C(CN=C(N)N(C)C)N(C)C (stereo not drawn) | 3 | 9
O=c1ccc(S(=O)(=O)N2CCCC2)cn1Cc1nnc(-c2cccs2)o1 | -1 | -1
Cc1cccc(NC(=O)CCC2CCN(C(=O)c3ccc(-c4ccco4)cc3)CC2)c1 | 4 | -5
N#Cc1nccnc1Nc1cccc(Nc2ccccc2)c1 | 2 | 1
CCN(C1CCS(=O)(=O)C1)S(=O)(=O)c1ccc(Br)cc1 (stereo not drawn) | 0 | 34
CCN(CC)C(=O)Cn1cc(SCC(=O)Nc2ccccc2)c2ccccc21 | -4 | -9
C[C@@]12CO[C@H](c3ccccc3)C[C@@H]1C[C@H](N1CCN(CCOCc3ccccc3)CC1)C2 | 0 | 10
O=C(NCCN1C(=O)SC(=Cc2ccc(OC(F)F)cc2)C1=O)C1CCC1 | 3 | 16
CCCCCC(=O)Nc1c(-c2ccccc2C)nc2ccc(C)cn12 | -6 | -5
CCS(=O)(=O)c1cccc(NC(=O)c2cc3c(F)cccc3[nH]2)c1 | -5 | -6
COc1ccc(NC(=O)N(C)Cc2sccc2C)cc1Cl | 1 | 1
CCOC(=O)C1=C(C)N=c2s/c(=C\c3c4ccccc4cc4ccccc34)c(=O)n2C1c1ccccc1 (stereo not drawn) | 10 | 15
CCOC(=O)C1C(=N)OC2=C(C(=O)CCC2)C1c1c(F)cccc1Cl (stereo not drawn) | -2 | -3
O=C1CCCC2(O)C1C(c1cccc(Br)c1)NC(=O)N2Cc1ccccc1 (stereo not drawn) | 2&5 | 0&1
Clc1ccc(C2=Nc3ncnn3C(c3cccc4ccccc34)C2)cc1 (stereo not drawn) | 4 | -3
CCCC(=O)N1CCCC1(C)C(=O)Nc1cc(OC)c(OC)c(OC)c1 (stereo not drawn) | 0 | -3
O=C(CN1CCN(S(=O)(=O)c2cccc(Br)c2)CC1)NC1CCCCCC1 | -5 | -4
CCC(=O)N1CCN(c2ccc(-n3cccn3)nn2)CC1 | 8 | 3
COc1ccc(CNC(=O)c2ccc(-c3ccc4c(c3)OCCO4)s2)c(OC)c1 | 4 | 3
CN1CCN(C(=O)C2C(C=C(Cl)Cl)C2(C)C)CC1 (stereo not drawn) | -10 | -14
CCOc1cc(S(=O)(=O)N2CCC(C(N)=O)CC2)ccc1F | 2 | 3
Cc1nc(C(C)N(C)C(=O)Cn2nnnc2CN2CCCC2)c(C)s1 (stereo not drawn) | -6 | -8
Cc1ccc(C(=O)N/C(=C/c2cccc3ccccc23)C(=O)Nc2cccc(O)c2)cc1 | 15 | 17
c1ccc(-c2ccc(-c3nc(-c4cccnc4)no3)cc2)cc1 | 23 | 18
CC(=O)Nc1cccc(CN2CCCN(C(C)=O)c3ccccc32)c1 | 9 | 4
CC(C)CC(NC(=O)Cc1ccsc1)c1nc2ccccc2[nH]1 (stereo not drawn) | 2 | -1
N#Cc1c(NC(=O)CSc2n[nH]c(=O)[nH]c2=O)sc2c1CCCC2 | 0 | -2
Cc1cc(C)cc(OCc2nc(CN(C(=O)c3ccccc3C)C(C)C)cs2)c1 | 25 | 20
CCCN(CC(=O)N1CC(=O)N(c2ccc(Cl)cc2)C1)C(=O)COC | 11 | 6
CCN1CCN(c2ncc(-c3cc(=O)[nH]c(N4CCC(C)CC4)n3)c(C)n2)CC1 | 1 | -1
Cc1ccc2c(c1)c(CNC1CCN(Cc3ccccn3)CC1)nn2C | 11 | 9
CCOC(=O)Cn1c(CN2CCc3ccccc3C2)nc2c1c(=O)n(C)c(=O)n2C | 0 | 7
Cc1cc(C)cc(NC(=O)CSc2ccc3nnc(-c4ccncc4)n3n2)c1 | -2 | -3

Shown as a markdown table: 3 of the compounds above.
| Structure | NPYLR7 agonist | NPYLR7 agonist max-min |
| --- | --- | --- |
| O=C1CCCC2(O)C1C(c1cccc(Br)c1)NC(=O)N2Cc1ccccc1 (stereo not drawn) | 2&5 | 0&1 |
| Clc1ccc(C2=Nc3ncnn3C(c3cccc4ccccc34)C2)cc1 (stereo not drawn) | 4 | -3 |
| CCCC(=O)N1CCCC1(C)C(=O)Nc1cc(OC)c(OC)c(OC)c1 (stereo not drawn) | 0 | -3 |

For convenience, part of the list above.
SMILES | NPYLR7 agonist | NPYLR7 agonist max-min
CCOC(=O)Cn1c(CN2CCc3ccccc3C2)nc2c1c(=O)n(C)c(=O)n2C | 0 | 7
Cc1cc(C)cc(NC(=O)CSc2ccc3nnc(-c4ccncc4)n3n2)c1 | -2 | -3

Additional results.
SMILES | NPYLR7 agonist | NPYLR7 agonist max-min
CC1C(=O)N2CCCc3cc(S(=O)(=O)N(Cc4ccccc4)c4ccccc4)cc1c32 (stereo not drawn) | 10 | 4
CC1=NN(c2ccc(C(=O)N(C)Cc3ccccc3O)cc2)CC1 | -18 | -18
O=C(N[C@@H]1C[C@@H]2CO[C@H](c3ccccc3)C[C@@H]2C1)c1cc2ccccc2o1 | 5 | 7
Cc1noc(C)c1CNS(=O)(=O)N1CCN(C(=O)C2CCCC2)CC1 | 8 | i
Cc1nc2c(sc3cccc(F)c32)c(=O)n1CC(=O)NCCC1=CCCCC1 | 2 | -1
CCOC(=O)c1sc(N=NC2=C(O)CC(C)(C)CC2=O)c(C(=O)OCC)c1C | 2 | 1
Cc1c(C)c(C)c(S(=O)(=O)Nc2ccc(-n3cnnn3)cc2)c(C)c1C | -1 | -2
O=S(=O)(c1cccs1)N1CCN(Cn2nc(-c3ccco3)oc2=S)CC1 | 5 | 9
CC(C)c1nnc2sc(C3CCCO3)nn12 (stereo not drawn) | 2 | 1
O=C(c1nc2c(s1)CCCC2)N1CCCCC1CCn1ccnc1 (stereo not drawn) | 17 | 14
COc1ccc(C2CC(=O)C3C(=Nc4ccccc4NC3c3ccc(C)s3)C2)cc1OC (stereo not drawn) | -9 | -15
CC1(C)CC(C=Cc2ccccn2)=Cc2c1sc(N)c2C#N | 5 | 3
CCCOc1ccccc1C(=O)N1CCC2(CCN(C)C2)CC1 | 13 | 9
Cc1cc(C)cc(Nc2nc(N3CCOCC3)nc3c2cnn3-c2ccccc2)c1 | 1 | -2
Cc1cccc(OCC(=O)N2CCC(n3c(-c4ccccc4)nc4ccc(F)cc43)CC2)c1C | -3 | -4
CCOC(=O)c1ccc(N2CCCn3c2nc2c3c(=O)n(CCOC)c(=O)n2C)cc1 | -11 | -14
O=C1NCCC/C1=N/Nc1cc(OCc2ccccc2)ccc1F | 11 | 12
CCOC(=O)c1ccc(NC(=O)c2sc(NC(=O)c3ccco3)c(C(=O)OCC)c2C)cc1 | -3 | -10
CC(C)NC(=O)C1(C)CCCN1C(=O)c1ccccc1Br (stereo not drawn) | 1 | -1
O=C(Cn1cnnn1)Nc1cccn(Cc2ccccc2)c1=O | 3 | 323
Cc1cc(C)n(CCNC(=O)c2ccc3oc(Cc4ccccc4)nc3c2)n1 | 2 | -2
Cc1ccc(-c2nc(SCC(=O)Nc3nccs3)c3c(=O)n(C)c(=O)n(C)c3n2)cc1 | -4 | -7
C=C(C)COc1ccc(-c2[nH]ncc2-c2ccccc2OC)c(O)c1 | 1 | -1
CC(C)C1CN(C(=O)c2ccc3c(c2)OCO3)CCC(=O)N1CC1CC1 (stereo not drawn) | 1 | -1
O=C(NCCc1ccccc1F)c1cccnc1Oc1cccc([N+](=O)[O-])c1 | -19 | -27
Cc1nc2c(c(C)c1CC(=O)N1CCCC(C)C1)c(=O)[nH]n2C (stereo not drawn) | 4 | 1
Cc1nc(N2CCCCC2)ncc1C(=O)N1CCC2(CCN(C)C2)CC1 | 7 | 0
CCOc1ccc(S(=O)(=O)Nc2ccc3oc(-c4ccccc4)cc3c2)cc1 | -5 | -6
COC1CCN(C(=O)Cc2ccccc2Br)CC1 | 5 | 2
CCOc1ccc(-n2c(C(CC)N(C)C(=O)Nc3cccc(Cl)c3Cl)nc3ccccc3c2=O)cc1 (stereo not drawn) | 1 | 4
Cc1ccccc1CC1(CO)CCCN(C(=O)c2ccoc2)C1 (stereo not drawn) | 3 | 8
Cc1cccc(NC(=O)NCc2nnnn2C2CCCCC2)c1 | 4 | 1
CCCCOc1ccc(C2=N/C(=C\c3cccc(OC(C)=O)c3)C(=O)O2)cc1 | -1 | -4
O=C(Cc1cccs1)N(CC1CCCO1)C1(C(=O)NC2CCCC2)CCCCC1 (stereo not drawn) | 1 | -3
Cc1ccc(-c2cc(NC(=O)CSc3nnc(C)s3)on2)cc1 | 4 | 8
CCN(Cc1nccn1Cc1ccc(Cl)c(Cl)c1)C(=O)c1cccc(OC)c1 | 3 | 12
O=S(=O)(c1ccccc1C(F)(F)F)N1CCN(c2nccc(-c3ccc4c(c3)OCO4)n2)CC1 | -4 | -7
Nc1nnc(SC/C=C/CSc2nnc(N)s2)s1 | 8 | 6
CCC(C(=O)Nc1cc(C)on1)N1CCCC1c1cccs1 (stereo not drawn) | -17 | -18
Cc1nccn1CC(O)Cn1c2ccc(Cl)cc2c2cc(Cl)ccc21 (stereo not drawn) | 2 | 0
O=C(C(c1ccccc1)n1nc(-c2ccc(F)cc2)oc1=O)N1CCCC1 (stereo not drawn) | 1 | -2
COc1cc(C(=O)N2CCN(Cc3ccc(-c4noc(-c5cccnc5)n4)cc3)CC2)ccc1F | 8 | 13
COC(C)(C)C#C/C=C/S(=O)(=O)c1ccc([N+](=O)[O-])cc1 | -8 | -11
CC(C)[C@@H](C(N)=O)n1ccnc1-c1ccccc1C(=O)O | 5 | 1
CO[C@H]1[C@H](NC(=O)c2cccc(F)c2)c2ccccc2C12CCN(Cc1nc(C(C)C)cs1)CC2 | 8 | 6
CCc1ccc(N2C(=O)c3c(C(=O)OC)nn(C45CC6CC(CC(C)(C6)C4)C5)c3C2=O)cc1 | -1 | 27
CCC(C)N(Cc1c(-c2ccccc2)noc1N1CCCC1)C(=O)Nc1ccc(C)cc1 (stereo not drawn) | -3 | -3
Cc1ccccc1C(=O)N(CCCN)c1cccc(C(F)(F)F)c1 | -2 | -4
CC(=NN1CCN(Cc2ccccc2Cl)CC1)c1ccc2ccccc2c1 | 11 | 3
Cc1ccc(C(=O)Oc2coc(CSc3nccn3C)cc2=O)cc1[N+](=O)[O-] | 12 | 10

Source: PubChem BioAssay
